Compound activity as filed in PubChem BioAssay.
AmpC nodet inh: AmpC beta-lactamase inhibition, detergent-free assay; P00811; AmpC nitrocefin hydrolysis, absorbance 480 nm, no detergent; potencies from a single point are estimates; Potency, µM (series often up to 28.7 µM), for the others: top-dose activity change, negative = inhibition; 71,000 compounds, 1.8% hits; active = falling curve, for most hits resting on a single point; inconclusive = weak or doubtful change; inactive = flat or rising curve; further: % of control where 0% means no effect; about half of the hits show no inhibition at the top dose; a quarter of the inactives give rising signals
Target sequence (P00811 whole entry, looked up): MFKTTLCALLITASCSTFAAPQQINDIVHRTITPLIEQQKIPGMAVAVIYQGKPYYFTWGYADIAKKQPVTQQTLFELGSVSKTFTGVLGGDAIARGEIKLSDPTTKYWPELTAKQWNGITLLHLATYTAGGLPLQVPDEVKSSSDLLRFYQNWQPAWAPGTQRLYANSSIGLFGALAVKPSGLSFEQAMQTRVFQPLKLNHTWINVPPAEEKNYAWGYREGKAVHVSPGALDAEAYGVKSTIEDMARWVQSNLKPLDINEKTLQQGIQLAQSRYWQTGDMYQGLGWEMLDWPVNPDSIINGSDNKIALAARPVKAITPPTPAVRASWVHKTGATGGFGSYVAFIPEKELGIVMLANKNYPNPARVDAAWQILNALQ
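AmpC, 20 mM phosphate pH 7.0; 15 min cpd preinc, RT; start with nitrocefin (800 uM stock); A480 kinetic read, 20 s intervals, 4 min. No-enzyme wells = negative control.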
* = called active by the depositor; & = joins results of further samples; [ ] = dose if it differs, or a comment. Potency means the concentration at half of the fitted maximal effect. Only part of the results is shown; rates above refer to the full screens.

Cc1cnc(CNc2cc(-c3cccc(NS(C)(=O)=O)c3)ncn2)cn1 was read as AmpC nodet inh 10.9%.
For C=CCOc1cccc(C2c3c(oc4ccc(F)cc4c3=O)C(=O)N2CCCN2CCOCC2)c1 (stereo not drawn) the results were AmpC nodet inh 122.1%.
`Cc1ccccc1-n1c(Cn2c(=O)sc3ccccc32)nnc1SCC(=O)N1CCCC1` gave AmpC nodet inh 98.2%.
Screening Cc1noc(C)c1C(=O)N1CCC[C@@]2(CCN(Cc3cc(C(F)(F)F)cc(C(F)(F)F)c3)C2)C1 returned AmpC nodet inh -5.8%.
Screening COc1c(F)c(F)c(C(=O)Nc2ccc(NC(=O)c3ccco3)cc2)c(F)c1F returned AmpC nodet inh -24.7%.
For CC(C)=NNc1ncnc2nc[nH]c12 the results were AmpC nodet inh -4.1%[5.75 µM].
Screening Cc1ccc(C2CC(C(F)(F)F)n3ncc(C(=O)NCc4ccco4)c3N2)cc1 (stereo not drawn) returned AmpC nodet inh 47.6%.
CN(C)c1cccc(-c2nnc(SCCCC#N)o2)c1 was read as AmpC nodet inh 23.9%.
`CCOC(=O)c1c(C(C)(C)C)oc2ccc(OCC#N)cc12` gave AmpC nodet inh 37.0%.
For O=C(NCc1ccccn1)c1cc(-n2cnnc2)ccc1Cl the results were AmpC nodet inh -1.0%.
`CC(=O)O[C@H]1C(=O)[C@]2(C)[C@H]([C@H](OC(=O)c3ccccc3)[C@@]3(O)C[C@H](OC(=O)[C@@H](O)[C@@H](NC(=O)c4ccccc4)c4ccccc4)C(C)=C1C3(C)C)[C@]1(OC(C)=O)CO[C@@H]1C[C@@H]2O` gave AmpC nodet inh 117.4%.
`CN1C=C(C(F)(F)F)C=C/C1=C(\C#N)c1nnc2n1CCCCC2` gave AmpC nodet inh 1.8%.
Screening Cc1[nH]nc2c1C(c1ccc(OC(=O)c3ccco3)cc1)C(C#N)=C(N)O2 (stereo not drawn) returned AmpC nodet inh -7.0%.
`C/C(=N\NC(N)=S)c1ccc[nH]1` gave AmpC nodet inh -5.4%[5.75 µM].
For COc1ccc(CCNc2nc(C)nc3c2oc2ccccc23)cc1OC the results were AmpC nodet inh 101.1%.
CSc1cccc(NC(=O)CN(C2CCCCC2)S(C)(=O)=O)c1 was read as AmpC nodet inh 41.2%.
Screening O=C(C1CCCO1)N1CCN(S(=O)(=O)c2ccccc2)CC1 (stereo not drawn) returned AmpC nodet inh 2.0%.
Screening CC(NC(=O)c1ccco1)C(c1cccs1)N1CCN(c2ccc(F)cc2)CC1 (stereo not drawn) returned AmpC nodet inh 48.2%.
Screening O=c1nc(-c2ccccc2)c2cc(Cl)ccc2[nH]1 returned AmpC nodet inh 0.3%.
Screening CCN=C(Nc1ccc2c(c1)OCO2)SC1CC(=O)N(c2ccccc2F)C1=O (stereo not drawn) returned AmpC nodet inh 17.1%.
COC(=O)c1ccc(CN2C(=O)NC3(CCC(C)CC3)C2=O)o1 (stereo not drawn) was read as AmpC nodet inh 8.6%.
For Cc1nnc(NCCc2ccccc2)[nH]c1=O the results were AmpC nodet inh 10.7%.
For COc1ccc(C(=O)O)cc1F the results were AmpC nodet inh -1.5%.
Screening COc1ccc(Cl)cc1N(CC(=O)Nc1ccc2c(c1)OCO2)S(C)(=O)=O returned AmpC nodet inh 18.9%.
COc1ccc(C)cc1NC(=O)C1CC(=O)OC12CCCCC2 (stereo not drawn) was read as AmpC nodet inh 11.4%.
Screening O=S(=O)(Nc1cccc2cccnc12)c1ccc(S(=O)(=O)N2CCCC2)cc1 returned AmpC nodet inh -1.4%.
For Cc1ccccc1NC(=O)N1C2CCCC1CC(NC(=O)C1CC1)C2 (stereo not drawn) the results were AmpC nodet inh -13.6%.
`O=C(CSc1cccc(C(F)(F)F)c1)N1CCN(S(=O)(=O)c2ccccc2)CC1` gave AmpC nodet inh 52.5%.
For CC(C)(C)c1ccc(OCC(=O)NC2CCS(=O)(=O)C2)cc1 (stereo not drawn) the results were AmpC nodet inh 28.6%.
COc1ccccc1CC1(C)NC(=O)N(CC(=O)Nc2cc(C)on2)C1=O (stereo not drawn) was read as AmpC nodet inh -1.3%.
`COc1ccc(NC(C)=O)cc1NC(=O)CSc1nnc(-c2cccnc2)n1C` gave AmpC nodet inh -5.3%.
Screening O=C(O)/C=C1\CCCc2ccccc2[C@H]1O returned AmpC nodet inh 7.0%.
`CCOc1ccc(Nc2nc(C)cc(C)c2C#N)cc1` gave AmpC nodet inh 4.6%.
Screening CCOC(=O)C1CCN(C(c2cccc(F)c2)c2sc3nc(C)nn3c2O)CC1 (stereo not drawn) returned AmpC nodet inh 2.9%.
CCOCCCNCC(=O)N1CCN(S(=O)(=O)c2ccc(C)cc2)CC1 was read as AmpC nodet inh 0.5%.
For O=C(CCCN1CCOCC1)c1ccc2c(c1)OCCO2 the results were AmpC nodet inh 11.6%.
For C=CCn1cnc2c(c1=O)c1nc3ccccc3nc1n2Cc1ccccc1 the results were AmpC nodet inh 15.2%.
`COCc1cc(C)nc(Nc2ccc(C)cc2C)c1C#N` gave AmpC nodet inh 4.3%.
CCOc1nc(N(C)C)nc(-n2nnc(C(C)=O)c2C)n1 was read as AmpC nodet inh 8.9%.
For Cc1ccc(C)c(C(=O)CC2(O)C(=O)N(C)c3ccccc32)c1 (stereo not drawn) the results were AmpC nodet inh 20.9%.
For Cc1nn(C)c(C)c1S(=O)(=O)N1CCc2ccccc21 the results were AmpC nodet inh 8.9%.
Screening COc1ccc(C2NC(=O)c3ccccc3O2)c(OC)c1OC (stereo not drawn) returned AmpC nodet inh 35.7%.
`O=C(O)C[C@H](Sc1ccccc1)c1ccccc1` gave AmpC nodet inh -1.4%[5.75 µM].
Screening Cn1nc(CC(=O)NC2CCCCCC2)c2ccccc2c1=O returned AmpC nodet inh 3.16µM*[single pt active].
For CC1CCC(NC(=O)C2CCN(c3cnccn3)CC2)CC1 (stereo not drawn) the results were AmpC nodet inh 5.4%.
O=C1CN(C(=O)CCCc2c[nH]c3ccccc23)c2ccccc2N1 was read as AmpC nodet inh 5.3%.
`CC1=C(C)CC(C(=O)N2CCN(Cc3ccccc3)CC2)C(C(=O)O)C1` (stereo not drawn) gave AmpC nodet inh -3.2%.
COC(=O)CN(n1cnnc1)S(=O)(=O)c1ccc(C)cc1 was read as AmpC nodet inh 3.9%.
O=C(c1cc(-n2cnnc2)ccc1Cl)N1CCN(c2nc(-c3ccccc3)cs2)CC1 was read as AmpC nodet inh 143.3%.
Screening CC(CCC(=O)O)(c1cc(Br)c(O)c(Br)c1)c1cc(Br)c(O)c(Br)c1 returned AmpC nodet inh -15.2%[5.75 µM].
COc1cccc2c1C(=O)c1c(O)c3c(c(O)c1C2=O)C[C@@](O)(C(C)=O)C[C@@H]3O[C@H]1C[C@H](N)[C@H](O)[C@H](C)O1 was read as AmpC nodet inh 144.3%&140.0%.
`CCOc1ccc(NS(=O)(=O)c2ccc(OCC(=O)N3CCCC3)cc2)cc1` gave AmpC nodet inh 3.9%.
`Cc1noc(C)c1S(=O)(=O)N1CCCC(C(=O)Nc2nccs2)C1` (stereo not drawn) gave AmpC nodet inh 3.98µM*[single pt active].
Screening COC(=O)C1(c2ccccc2)NC(c2cccs2)C2C(=O)N(C)C(=O)C21 (stereo not drawn) returned AmpC nodet inh 1.2%.
CCN1C(=O)C2(C(C#N)=C(N)Oc3n[nH]c(C(C)C)c32)c2ccccc21 (stereo not drawn) was read as AmpC nodet inh 11.2%.
`COC(=O)CCCC(=O)Nc1ccc(Cl)c(Cl)c1` gave AmpC nodet inh -1.5%.
Screening CCOC(=O)CSC1=NC(=O)CS1 returned AmpC nodet inh -0.8%.
`Cc1ccc(Cn2ccc(NC(=O)c3cc(-c4ccc(Cl)cc4)on3)n2)cc1` gave AmpC nodet inh -10.2%.
Screening O=c1c2ccccc2nc2n1CCc1c-2[nH]c2ccccc12 returned AmpC nodet inh -7.6%.
Screening Cc1cc(C)n(-c2nc3ccccc3[nH]c2=O)n1 returned AmpC nodet inh -2.4%.

Filtered by structure: the entries above containing a thiophene ring, fused or not.
Screening CC(NC(=O)c1ccco1)C(c1cccs1)N1CCN(c2ccc(F)cc2)CC1 (stereo not drawn) returned AmpC nodet inh 48.2%.
Screening COC(=O)C1(c2ccccc2)NC(c2cccs2)C2C(=O)N(C)C(=O)C21 (stereo not drawn) returned AmpC nodet inh 1.2%.

Other records
`Cn1c(COc2ccccc2)nnc1SCC(=O)NCc1ccccc1` gave AmpC nodet inh 23.7%.
`CCCc1nc2oc3c(NCCN(C)C)ncnc3c2c2c1CCCC2` gave AmpC nodet inh 131.6%.
For N#C/C(C(=O)c1ccccc1)=C1/CCCN1 the results were AmpC nodet inh -12.7%.
For COc1ccc(Cl)cc1-c1n[nH]c(=S)o1 the results were AmpC nodet inh -5.1%.
`CCOc1ccc(NC(=O)Cn2nnc(-c3ccccc3NC(=O)CC)n2)cc1` gave AmpC nodet inh -1.7%.
Screening N#Cc1ccc(CN2CC[C@@]3(CCCNC3)C2)cc1 returned AmpC nodet inh 4.4%.
For O=C(CN1C(=O)NC2(CCCC2)C1=O)N1CCN(C(=O)c2ccco2)CC1 the results were AmpC nodet inh -2.3%.
`O=C(NCc1ccco1)C(c1ccco1)N(CCc1ccccc1)C(=O)Cn1nnc2ccccc21` (stereo not drawn) gave AmpC nodet inh 21.0%.
For O=C(O)[C@H](CCc1ccccn1)c1ccccc1 the results were AmpC nodet inh -5.5%[5.75 µM].
CCn1c(=O)n(CC(=O)NC2CCCC(C)C2C)c(=O)c2ccccc21 (stereo not drawn) was read as AmpC nodet inh 3.9%.
CCC(=O)Nc1ccc2c(c1)nc(CCN1CCN(C)CC1)n2C was read as AmpC nodet inh -4.4%.
`Cc1ccc(Cc2nc(-c3cccc(C)c3)no2)cc1` gave AmpC nodet inh -2.8%.
For CN[C@]1(C)[C@H]2CC[C@@H](C2)C1(C)C the results were AmpC nodet inh 0.6%[12.8 µM].
Cc1onc(-c2ccccc2)c1C(=O)Nc1sc2c(c1C#N)CCC(C)C2 (stereo not drawn) was read as AmpC nodet inh -17.0%.
For COc1ccc(Cc2nn3c(-c4ccccc4OC)nnc3s2)cc1 the results were AmpC nodet inh 23.6%.
Screening CSc1nc(C)cc(-n2ccc(=O)[nH]c2=O)n1 returned AmpC nodet inh -3.2%.
`O=S(=O)(c1ccccc1)N1CCC2(CCCN(Cc3cc(C(F)(F)F)cc(C(F)(F)F)c3)C2)CC1` gave AmpC nodet inh 16.5%.
Cc1cc2oc(=O)cc(CN3CCN(Cc4ccc5c(c4)OCO5)CC3)c2cc1C was read as AmpC nodet inh 65.8%.
Screening Cc1c(-c2ccccc2)oc2nc3c(c(=O)n(C)c(=O)n3C)n12 returned AmpC nodet inh -1.7%.
Screening Cc1nnc(NC(=O)CCCCCN2C(=O)C3C4C=CC(C4)C3C2=O)s1 (stereo not drawn) returned AmpC nodet inh 3.98µM*[single pt active].

Brought forward from above: six compounds, then new ones.
For COc1ccc(Cc2nn3c(-c4ccccc4OC)nnc3s2)cc1 the results were AmpC nodet inh 23.6%.
Screening CSc1nc(C)cc(-n2ccc(=O)[nH]c2=O)n1 returned AmpC nodet inh -3.2%.
`O=S(=O)(c1ccccc1)N1CCC2(CCCN(Cc3cc(C(F)(F)F)cc(C(F)(F)F)c3)C2)CC1` gave AmpC nodet inh 16.5%.
Cc1cc2oc(=O)cc(CN3CCN(Cc4ccc5c(c4)OCO5)CC3)c2cc1C was read as AmpC nodet inh 65.8%.
Screening Cc1c(-c2ccccc2)oc2nc3c(c(=O)n(C)c(=O)n3C)n12 returned AmpC nodet inh -1.7%.
Screening Cc1nnc(NC(=O)CCCCCN2C(=O)C3C4C=CC(C4)C3C2=O)s1 (stereo not drawn) returned AmpC nodet inh 3.98µM*[single pt active].
For O=C(c1ccc(Br)o1)N1CCN(c2ccc3nnc(-c4ccccc4)n3n2)CC1 the results were AmpC nodet inh 181.2%.
`CS(=O)(=O)N(CC(=O)Nc1ccc2c(c1)OCO2)c1ccccc1` gave AmpC nodet inh -3.0%.
Screening O=C(O)c1ccc(COc2c(F)c(F)cc(F)c2F)o1 returned AmpC nodet inh 7.8%.
C=CC(=O)OCCOCCOC(=O)C=C was read as AmpC nodet inh 0.3%.
CCc1cccc2c(C#N)cn(CC(=O)N3CCOCC3)c12 was read as AmpC nodet inh 4.0%.
Screening COC(=O)c1ccc(Cl)c(NC(=O)CN(c2ccc3c(c2)OCO3)S(C)(=O)=O)c1 returned AmpC nodet inh 34.0%.
`COc1ccc(-c2nnc(Nc3nc4c(OC)cccc4s3)o2)cc1` gave AmpC nodet inh 29.0%.
For O=C(N/N=C\c1ccc2c(c1)CCC2)c1ccccc1O the results were AmpC nodet inh -2.6%[5.75 µM].
CCOc1ccc(C2c3c(oc4cc(C)c(C)cc4c3=O)C(=O)N2CCCN2CCOCC2)cc1 (stereo not drawn) was read as AmpC nodet inh 172.0%.
`O=C(CSc1nc(-c2ccccc2)cs1)N1CCN(C(=O)c2ccco2)CC1` gave AmpC nodet inh 84.0%.
Cc1nc2ccccc2c2oc(C(=O)NCC3CCCO3)cc12 (stereo not drawn) was read as AmpC nodet inh 5.3%.
O=C(c1cccs1)N1CCc2ccccc21 was read as AmpC nodet inh -3.3%.
Screening CCOc1ccc(Cc2nc(C)c(CC(=O)N3CCOCC3)c(=O)[nH]2)cc1 returned AmpC nodet inh 9.2%.
For CCCCOC(=O)C1CCCC(C(=O)OCCCC)N1 (stereo not drawn) the results were AmpC nodet inh 28.0%.
Screening Cc1nn(S(=O)(=O)N(C)C)c(C)c1CN1C(=O)c2ccccc2C1=O returned AmpC nodet inh 58.8%.
`CCOC(=O)c1ccc(NC(=O)CSc2nnc(-c3ccncc3)n2C)cc1` gave AmpC nodet inh -2.1%.
`O=C(NCc1ccco1)C1CCN(C(=O)c2cc3sccc3n2Cc2ccc(F)cc2)CC1` gave AmpC nodet inh 107.9%.
`CCC(C)n1c(SCC(=O)NC(=O)Nc2ccc3c(c2)OCCO3)nc2ccccc2c1=O` (stereo not drawn) gave AmpC nodet inh -1.9%.
Screening Cc1cc2nc(C)c(Cc3ccccc3)c(=O)n2[nH]1 returned AmpC nodet inh -4.1%.
For COC(=O)c1ccccc1NC(=O)CC(NCc1ccccc1)C(=O)O (stereo not drawn) the results were AmpC nodet inh -5.8%.
